PKM2 activator: qHTS Assay for Activators of Human Muscle isoform 2 Pyruvate Kinase; Pyruvate kinase PKM (Homo sapiens), P14618; purified PKM2, Kinase-Glo ATP luminescence, activation; response scale: 0% is enzyme alone, no compound; Potency, µM (highest dose often 57.5 µM), for inactives: top-dose activation, usual class: activators; actives 0.34% (n = 260,000); note: potency is the fitted concentration of half-maximal effect; % is set by controls: 0 for no effect and ±100 for the full control effect; nearly all actives have a fitted effect of over 55% in size
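Kinase-Glo luminescence reports ATP generated from ADP (0.1 mM) and PEP (0.5 mM) by purified hPK-M2 after 1 h at room temperature, pH 7.2 imidazole buffer; intermediate enzyme activity allows detecting inhibitors and activators.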
MLL CXXC-DNA inh: qHTS Fluorescence Polarization Assay for Inhibitors of MLL CXXC domain - DNA interaction; Histone-lysine N-methyltransferase 2A (Homo sapiens), Q03164; MLL-CXXC / FITC-HOXA9 DNA fluorescence polarization; Potency, µM (doses to about 115 µM), for the others: top-dose activity change, negative = inhibition, hits mostly inhibitors; actives 0.037% (n = 290,000); AID 2662, 2010; active = well fitted inhibition curve with a large enough effect in the polarisation, with a control signal flat, not every such curve was filed as active; inconclusive = small, poorly fitted or top-dose-only effect, or effect the other way, or a change in a side signal; inactive = no such curve, though single readings can be large or run the other way; the % refers to the polarisation; note: potency is the fitted concentration of half-maximal effect
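Steps: dispense CXXC domain solution (7 uM) → pin compounds or unlabeled HOX-A9 DNA control → 5 min ambient → add FLSN-HOX-A9 solution (50 nM) → spin → 30 min ambient → fluorescence polarization. Tris pH 7.5/NaCl/DTT/BSA buffer.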
TRPV1 ag: HTS Assay for Compounds that Act as Agonists of the Vanilloid Receptor 1 | Transient receptor potential cation channel subfamily V member 1 (Homo sapiens), Q8NER1 | activation, % at 8.33 µM | TRPV1-expressing cells, Fluo-8 calcium influx, agonist mode | actives 0.19% (n = 320,000); in the data active = activation above about 80%; inconclusive = between about 30% and that limit; note: 0% is about no effect
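Fluo-8 calcium influx in TRPV1-expressing cells, kinetic read (ex 480/em 520 nm). Compound added and read 3 min for agonist activity, followed by capsaicin at EC20 final and 2 min further read for enhancement.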
USP2a inh: qHTS Assay for Inhibitors of Ubiquitin-specific Protease USP2a Using CHOP2 as the Reporter. Ubiquitin carboxyl-terminal hydrolase 2 (Homo sapiens), O75604. USP2 core, Ub-CHOP2 coupled fluorogenic reporter, 485/531. Potency, µM (doses to about 38.3 µM), for inactives: at the top dose activity change, negative = inhibition, actives largely listed as inhibitors. actives 0.01% (n = 330,000);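 note: potency is the fitted concentration of half-maximal effect; plate controls were DMSO wells for no effect and full inhibition by NEM control for full effect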
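Cell-free coupled assay: 10nM USP2 core preincubated 30min RT with compound in Tris-HCl pH 8.0/CaCl2/CHAPS buffer, then 25nM Ub-CHOP2 and 25nM reporter substrate; fluorescence (Ex 485/Em 531) read after 60min RT, normalized to NEM inhibition, concentration-response curves fitted.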
GALK inhibitor: qHTS Assay for Inhibitors of Human Galactokinase (GALK); P51570; Purified GALK, Kinase-Glo residual ATP luminescence; Potency, µM (doses to about 57.5 µM), for inactives: top-dose activity change, negative = inhibition, most hits filed as inhibitors; actives 0.007% (n = 270,000); AID 1868, 2009; note: potency is the fitted concentration of half-maximal effect; % is set by controls: 0 for no effect and ±100 for the full control effect
Target sequence (P51570 whole entry, looked up): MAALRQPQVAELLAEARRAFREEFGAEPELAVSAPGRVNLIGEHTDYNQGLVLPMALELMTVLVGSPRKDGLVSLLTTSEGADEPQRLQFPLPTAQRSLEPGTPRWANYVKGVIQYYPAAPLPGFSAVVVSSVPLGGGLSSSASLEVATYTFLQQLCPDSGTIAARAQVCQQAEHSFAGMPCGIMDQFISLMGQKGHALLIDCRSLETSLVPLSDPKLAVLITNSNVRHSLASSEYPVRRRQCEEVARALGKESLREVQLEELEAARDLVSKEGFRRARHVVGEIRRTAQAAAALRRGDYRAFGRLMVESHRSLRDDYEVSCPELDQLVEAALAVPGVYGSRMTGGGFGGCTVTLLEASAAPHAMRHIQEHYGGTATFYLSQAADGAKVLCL
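ATP-depletion format; final 35 uM ATP, 100 uM D-galactose, 5 nM enzyme; pH 8.0 HEPES/Mg2+ buffer; 60 min RT; luminescence read 10 min after detection reagent.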
Giardia killer: Small Molecules that selectively kill Giardia lamblia: qHTS; actives 0.15% (n = 340,000); AID 540267, 2011; Giardia lamblia trophozoite viability; activity change, % at 7.66 µM, hits read low; in the data active = activity change below about -80%; inconclusive = between about -30% and that limit;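 note: parasites exposed to compound for two days anaerobically before the ATP read; % is set by controls: 0 for no effect and ±100 for the full control effect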
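Luminescence from cellular ATP indicates surviving trophozoites (100 cells/well) following 48 hrs anaerobic compound treatment at 37 deg C; signal develops 15-30 min at room temperature.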
KCNH2 WT inh: qHTS for Inhibitors of KCHN2 3.1: Wildtype qHTS; U2OS, BacMam KCNH2, thallium flux FluxOr; stronger effect = lower value; activity change, % at 1.84 µM; actives 0.37% (n = 340,000);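 active = maximum activity change below -70%; inconclusive = maximum activity change between -70% and -50%; inactive = maximum activity change above -50%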; note: % is set by controls: 0 for no effect and ±100 for the full control effect
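U2OS cells were transduced with wild-type KCNH2 virus (2.03 x 10^8 / mL) for 4 h at room temperature, then cultured overnight at 37 C. Thallium flux was read with FluxOr dye. Rate constants were normalized to DMSO controls.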
Coupling enz: qHTS Assay for Inhibitors of Fructose-1,6-bisphosphate Aldolase from Giardia Lamblia: Coupling assay counterscreen | coupling enzyme system counterscreen, AmpLite Red fluorescence | activity change, negative = inhibition, % at 58.2 µM, hits read low | actives 0.67% (n = 290,000); in the data active = activity change below about -30%; note: % is set by controls: 0 for no effect and ±100 for the full control effect
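Counterscreen of the coupled detection system alone, without aldolase: glyceraldehyde-3-phosphate coupling enzymes plus AmpLite Red readout. Compounds at 57.5 uM final, 10 min RT preincubation, 20 min RT reaction, fluorescence 525/598 nm.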
B2AR arrestin: qHTS assay of beta-arrestin-biased ligands of beta2-adrenergic receptor. beta-arrestin recruitment to beta2AR, cell-based reporter. Potency, µM (series often up to 46.1 µM), without a hit: at the top dose activation, actives largely listed as activators. actives 0.02% (n = 330,000). AID 492947, 2010;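 note: potency is the fitted concentration of half-maximal effect; 0% = DMSO controls and full agonism = EC100 isoproterenol or metaproterenol; nearly all actives have a fitted effect of over 65% in size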
Target sequence (P07550 whole entry, looked up): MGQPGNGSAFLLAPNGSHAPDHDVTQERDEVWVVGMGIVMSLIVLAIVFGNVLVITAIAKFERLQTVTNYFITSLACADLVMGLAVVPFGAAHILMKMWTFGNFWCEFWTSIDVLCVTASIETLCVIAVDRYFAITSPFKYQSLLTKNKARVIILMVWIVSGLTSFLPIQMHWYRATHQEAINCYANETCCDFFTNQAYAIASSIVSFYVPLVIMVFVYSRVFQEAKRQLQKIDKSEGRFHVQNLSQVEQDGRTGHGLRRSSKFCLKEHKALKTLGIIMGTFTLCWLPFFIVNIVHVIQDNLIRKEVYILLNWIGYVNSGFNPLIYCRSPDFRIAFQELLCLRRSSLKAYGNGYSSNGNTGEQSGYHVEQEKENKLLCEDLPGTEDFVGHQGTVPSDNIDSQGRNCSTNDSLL
KCNH2 3.1 block: qHTS for Inhibitors of KCHN2 3.1: Mutant qHTS; AID 720553, 2013; actives 0.95% (n = 340,000); U2OS KCNH2 3.1, thallium flux FluxOr; stronger effect = lower value; activity change, % (tested at about 1.8 µM);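 active = maximum activity change below -70%; inconclusive = maximum activity change from -70% to -50%; inactive = maximum activity change above -50%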;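 note: thallium influx rate constant from kinetic fluorescence after stimulation buffer; % is set by controls: 0 for no effect and ±100 for the full control effect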
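U2OS cells transduced with KCNH2 3.1 mutant virus (1.77 x 10^8 /mL, 4 h), plated overnight at 37 C, loaded 45 min with FluxOr dye plus Red40 quencher. Thallium flux rate constant from kinetic reads after stimulation buffer, normalised to controls.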
Active calls of the source: *; ? = inconclusive; nt = not tested or not shown; [ ] = dose if it differs, or a comment. Unless noted, calls come from the whole dose curve; as a rule, active = well fitted curve in the direction sought with a large enough effect; inconclusive = small, poorly fitted or top-dose-only effect, or another doubt; inactive = no such curve, though single readings can be large; an effect the other way counts as inactive or inconclusive. The list is partial, so the mix of outcomes need not match the whole.

SMILES	PKM2 activator	MLL CXXC-DNA inh	TRPV1 ag	USP2a inh	GALK inhibitor	Giardia killer	KCNH2 WT inh	Coupling enz	B2AR arrestin	KCNH2 3.1 block
CCn1c(Cc2ccccc2)nnc1SCC(=O)Nc1ccc(C)cc1	-3.4%	-5.4%	-1.6	0.7%	-0.1%	11.5	5.9	1.9	-0.2%	-7.5
C/C(=N/NC(=O)c1cccc(C)c1)c1c(O)cc(C)oc1=O	2.1%	6.3%	23.3	-1.4%	-3.9%	5.6	-8.9	-1.5	0.1%	10.0
Cc1csc(OCc2ccc(C#N)cc2)n1	7.8%	2.6%	0.4	3.4%	-4.6%	-6.4	13.1	0.0	-0.4%	18.7
O=C1c2ccccc2C(=O)N1C(CO)C(O)c1ccc([N+](=O)[O-])cc1 (stereo unspecified)	nt	6.5%	0.0	1.6%	-1.4%	-0.8	-17.3	1.5	-0.7%	0.7
O=C(CSc1ccc2c(c1)OCCO2)Nc1ccc(Cl)cn1	16.0%	-3.3%	2.8	3.4%	2.0%	13.6	-14.2	-2.4	-0.4%	4.8
CCOc1ccc(C=NC23CN4CN(CN(C4)C2)C3)cc1	2.1%	-5.5%	-0.5	0.1%	2.3%	1.2	-9.8	-0.8	0.2%	11.5
O=c1c2cccnc2[nH]c(=S)n1Cc1ccccc1	3.5%	9.8%	-1.1	-0.5%	-1.8%	-2.7	6.3	2.8	1.4%	2.7
CCCCn1c(=S)[nH]c2ncccc2c1=O	-4.1%	-9.9%	-1.7	-0.3%	-0.7%	-13.5	-32.3	-0.5	-0.2%	11.8
O=C(NCCc1ccccc1)Nc1ccc(Cl)cc1	8.2%	7.5%	27.5	4.0%	1.8%	3.6	-4.5	-0.7	-1.0%	0.5
COc1ccccc1C(CC(=O)Nc1ccccc1C)c1ccc(OC(C)C)cc1 (stereo unspecified)	0.8%	-7.6%	6.2	3.4%	0.8%	6.8	-16.6	-1.9	0.0%	-7.8
CN1C(=O)[C@H]2[C@@H](/C=C/c3ccccc3)N3C(=O)CN(CCO)C(=O)[C@@]3(Cc3ccccc3)[C@H]2C1=O	-16.7%	-0.2%	-3.7	0.5%	nt	2.6	-13.1	-0.5	-0.2%	-0.8
C=CCc1ccc(OCCCOc2ccc(C(=O)O)cc2)c(OC)c1	-0.1%	-13.7%	1.7	-0.2%	6.6%	-14.3	-0.9	19.6	0.0%	-4.1
CC(C)(C)c1cc(NC(=O)C2CCCO2)no1 (stereo unspecified)	5.3%	1.5%	0.9	1.7%	1.1%	12.5	-1.9	-1.5	-0.1%	2.9
CCN(CC)S(=O)(=O)c1cccc(NC(=O)COC(=O)c2cc(C)oc2C)c1	0.5%	-3.5%	-1.6	-0.3%	3.3%	-26.1	-2.5	4.2	-0.2%	-8.5
COc1ccc(/C=C2/Sc3ccc(C(=O)N4CCc5ccccc5C4)cc3NC2=O)cc1	-4.6%	19.5%	1.6	1.4%	0.6%	-13.5	24.4	0.5	-0.7%	-19.0
O=C(CCc1ccccc1)NC(NC(=S)Nc1cccc(Cl)c1)C(Cl)(Cl)Cl (stereo unspecified)	-11.7%	23.6%	-4.2	0.8%	0.0%	-4.6	8.8	-0.9	-0.9%	-5.2
COc1ccc(-c2cc(-c3n[nH]c(=S)n3-c3ccccc3OC)[nH]n2)cc1	-14.5%	-4.5%	-3.1	-1.5%	-0.1%	-29.8	1.2	3.5	-1.9%	9.5
O=C(NCc1cccs1)c1cccc(S(=O)(=O)N2CCCCC2)c1	-3.0%	5.8%	16.7	0.1%	-0.5%	-8.4	-7.1	0.1	0.2%	4.0
COc1ccc(N/N=C(/C(N)=O)C2=NC(C)(C)Cc3ccccc32)cc1	-13.3%	-4.5%	10.9	-6.7%	0.4%	9.9	-4.0	0.1	-0.6%	-5.8
COc1ccc2cc(C#N)c(N3CCOCC3)nc2c1	-1.5%[11.5 µM]	-5.0%	11.3	1.8%	-0.2%	-3.3	-11.7	0.0	-0.2%	3.9
CC(=O)/C(=N\Nc1ccccc1)Sc1cccc2cccnc12	-3.4%	?	0.8	3.4%	-0.8%	?	-2.8	1.9	-0.7%	-7.7
CCOC(CNC(=O)c1cccn2c(=O)c3cc(Cl)ccc3nc12)OCC	-4.7%	?	7.6	-9.9%	-0.5%	16.1	27.2	-6.3	0.3%	-23.1
Cc1ccc([C@@H]2[C@@H]3C(=O)N(C)C(=O)[C@@H]3[C@]3(Cc4ccccc4)C(=O)N(CCO)CC(=O)N23)o1	0.4%	-3.2%	2.4	2.3%	nt	5.9	-12.8	-0.8	-0.4%	6.4
CN(C)C(CNc1ccc(C(F)(F)F)cc1[N+](=O)[O-])c1ccccc1 (stereo unspecified)	-3.9%	-4.9%	-0.6	-8.7%	15.4%	0.4	9.4	1.6	0.2%	-21.3
COc1ccc(S(=O)(=O)n2ccc(C(C)Oc3ccc(-c4ccccc4)c(F)c3)n2)cc1 (stereo unspecified)	-0.1%	1.9%	28.6	-1.3%	0.2%	-12.6	0.1	-0.6	0.1%	4.3
Cc1cccc(CCNc2nc3ccc(C)cc3n3cnnc23)c1	nt	0.9%	16.2	0.2%	-2.2%	5.0	9.9	-0.4	-1.1%	2.5
COc1ccc(-c2nnc(S/C(=C/c3ccc(Cl)cc3)C(=O)O)o2)cc1	-6.6%	21.5%	-0.5	-0.4%	6.5%	-12.8	7.9	8.6	-0.3%	-4.6
COc1ccc(-c2cnnn2-c2ccc([N+](=O)[O-])cc2)cc1	-6.8%	3.1%	-0.4	-0.1%	-3.0%	8.6	4.1	1.1	-0.1%	-11.6
COc1cc(OC)c(/C=N/n2c(C)nnc2C)c(OC)c1	8.4%	8.3%	2.6	0.1%	1.5%	-12.0	-11.6	0.1	0.1%	-28.4
COc1ccccc1N1CCN(CCOc2c(OC)cccc2OC)CC1	-3.7%	-1.0%	-3.8	-5.9%	3.7%	-13.6	0.1	-0.5	0.3%	-2.6
COc1ccc(-c2cc(C(=O)Nc3sc4c(c3C#N)CCCC4)c3ccccc3n2)cc1OC	-5.9%	7.5%	7.8	-0.7%	-0.1%	-9.4	-3.2	13.2	-0.3%	-5.0
CCSc1nnc2c(n1)[nH]c1c(C)cccc12	1.3%	2.3%	?	-0.1%	0.3%	-26.4	0.4	0.2	-0.1%	5.4
C=C1CCN([C@@H](CC(C)C)C(=O)N2CCOCC2)S(=O)(=O)c2ccccc21	nt	nt	nt	nt	nt	15.8	3.4	nt	nt	0.2
COc1ccc(/C=C/C(=O)NC(=S)N2CCSCC2)cc1	0.2%	5.2%	15.6	4.6%	2.8%	-3.5	-8.3	-1.2	10.1%	8.5
O=C(O)c1ccc(NC(=S)NC(NC(=O)c2ccco2)C(Cl)(Cl)Cl)cc1 (stereo unspecified)	0.2%	-4.4%	-9.2	8.7%	2.2%	5.2	-3.4	3.1	-0.1%	-12.1
O=C(CSc1nnc(-c2ccco2)n1Cc1ccccc1)NC(=O)NCc1ccccc1	-3.4%	-15.3%	1.0	-7.7%	6.3%	-6.3	15.2	-0.6	0.2%	-25.6
CCn1c(CNc2ccc(C)cc2)nnc1SCC(N)=O	-4.6%	-2.1%	-1.9	3.3%	-2.8%	9.8	-1.1	-2.3	-0.9%	10.0
CC1(C)COC(c2cccc(C3=NC(C)(C)CO3)n2)=N1	-9.6%	7.9%	1.9	1.2%	3.3%	8.3	3.3	1.8	-0.1%	-9.7
CCOc1ccccc1OCCNC1CCCC1	4.4%	-4.7%	0.7	-0.3%	nt	4.3	nt	0.0	-1.3%	-3.5
COC(=O)C1=CN(c2cccc(C(F)(F)F)c2)C=C(C(=O)OC)C1c1ccc(O)c(OC)c1	nt	1.2%	11.7	-9.8%	-2.0%	0.5	2.0	-6.2	-0.6%	8.9
O=C(CSc1ccc(-c2ccccn2)nn1)Nc1nccs1	8.8%	5.2%	0.1	-1.0%	5.2%	15.5	-15.1	6.6	-0.4%	6.4
Cc1nc2nc[nH]n2c(=O)c1NC(=O)CCc1ccccc1	-7.9%	5.2%	-0.1	2.0%	0.2%	9.6	-5.4	-1.3	-1.4%	3.9
CC(=O)OCCc1c(C)nc2nc[nH]n2c1=O	1.4%	2.5%	-0.9	0.1%	-0.2%	20.9	22.1	0.6	-0.4%	-0.4
Cc1ccc(S(=O)(=O)N2CCN(c3ccc(C(F)(F)F)cc3[N+](=O)[O-])CC2)cc1	9.1%	24.5%	5.0	-9.2%	-1.4%	6.7	-0.7	-4.6	-0.6%	-14.9
Cc1ccc(C(O)c2nc3ccccc3n2C(C)C)cc1 (stereo unspecified)	2.2%	-6.7%	2.5	8.5%	1.2%	-3.4	3.0	-0.5	-0.3%	0.0
